High-throughput results from PubChem.
Rango dissoc inh = inhibition of RanGTP-driven Rango-importin beta dissociation; O95149+P62826; Biochemical FRET Rango-importin beta, RanGTP-induced dissociation; Potency, µM (doses to about 46.1 µM), for inactives: top-dose activity change, negative = inhibition; 340,000 compounds, 0.071% hits; active means falling FRET ratio curve, often poorly fitted, with flat reads before Ran was added; inconclusive means other falling curves, or compound fluorescence or quenching; inactive means flat or rising ratio curve;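 also: potency is read from the fitted curve at half-maximal effect; % of control where 0% means no effect; nearly all actives have a fitted effect of over 45% in size; -100% = wells without RanGTP and RCC1; the record marks most hits as doubtful in a second field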
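Quantitative HTS using a FRET biosensor: 0.1 uM Rango, 0.25 uM importin beta, 0.6 uM Ran, 2 mM GTP, 0.2 uM RCC1 final, PBS with DTT, Tween-20 and BSA. Post-read taken 45 min after Ran addition.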
Rango-impB inh = inhibitors of Rango-importin beta complex formation. Q14974. Rango CFP/YFP FRET sensor + importin beta, 45 min. Potency, µM (highest dose often 92.2 µM), for the others: at the highest dose inhibition of complex formation. 340,000 compounds, 0.031% hits; active = rising FRET ratio curve, often small or poorly fitted; inconclusive = mostly compound fluorescence or quenching in the first reads; inactive = flat curves in all reads;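 also: potency is read from the fitted curve at half-maximal effect; 0% = DMSO wells and 100% = buffer wells lacking importin beta; nearly all actives have a fitted effect of over 15% in size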
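FRET biosensor (snurportin 1 IBB flanked by EYFP and cerulean), 50 nM, with compound 5 min, then 0.125 microM importin beta in PBS, 1 mM DTT, 0.02% Tween-20, 0.1% BSA. CFP/YFP ratio read after 45 min at room temperature; pre-read flags interference.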
GLA inh pH 4.5 = alpha-galactosidase A (human) inhibition, pH 4.5; P06280; purified enzyme, 4-MU-alpha-Gal fluorescence, pH 4.5; activity change, negative = inhibition, % at 105 µM; 230,000 tested, under 10 active; AID 1467; inconclusive = small, poorly fitted or top-dose-only inhibition, or a rising curve; inactive = flat fitted curve, though single readings scatter; no compound was filed as active;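 also: 0% = full activity with enzyme and -100% = basal without enzyme; dose as in the result columns while the protocol names 77 µM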
Target sequence (P06280 whole entry, looked up): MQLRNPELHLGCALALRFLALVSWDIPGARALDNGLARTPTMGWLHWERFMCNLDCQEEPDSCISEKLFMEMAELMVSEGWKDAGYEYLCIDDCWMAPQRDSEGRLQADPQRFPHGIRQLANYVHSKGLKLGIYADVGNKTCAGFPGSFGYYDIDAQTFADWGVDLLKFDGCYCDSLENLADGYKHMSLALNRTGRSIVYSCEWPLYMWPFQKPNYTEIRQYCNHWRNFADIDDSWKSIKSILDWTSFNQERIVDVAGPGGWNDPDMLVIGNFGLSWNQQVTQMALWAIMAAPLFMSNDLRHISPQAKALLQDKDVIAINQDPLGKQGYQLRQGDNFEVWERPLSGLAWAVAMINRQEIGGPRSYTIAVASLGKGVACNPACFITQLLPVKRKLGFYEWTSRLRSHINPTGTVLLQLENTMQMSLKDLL
miR-21 FLuc = miR-21 reporter, rising signal; HeLa miR-21 FLuc reporter, luciferase, 48 h; 340,000 tested, under 10 active; AID 2288; Potency, µM (top dose mostly 38.3 µM), for the others: top-dose reporter change, positive = more light; active = well fitted rising curve with a large enough effect; inconclusive = small, poorly fitted or top-dose-only effect; inactive = no such curve, though single readings can be large or run the other way;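 also: % of control where 0% means no effect; miR-21 action dims this reporter so a rising signal means less miR-21 action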
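Compounds were titrated across several concentrations (up to approximately 40 uM) and incubated 48 hours with HeLa miR-21-FLuc reporter cells (miR-21 target sequence downstream of FLuc, endogenous miR-21). Readout was firefly luciferase luminescence after lytic detection reagent.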
* marks the source's active call; other numbers are inactive results; u = inconclusive; x = no result given; & = joins results of further samples. This is a subset; rates above refer to the full screens.

Rango dissoc inh | Rango-impB inh | miR-21 FLuc | SMILES | GLA inh pH 4.5
-1% | -0.7% | -3% | CCCOCC(O)COc1ccccc1C(=O)N1CCOCC1 (stereo unspecified) | -7
u | 3.0% | -15% | COc1ccc(-c2ccc(SCC(=O)N3CCOCC3)nn2)cc1OC | 19
2% | 1.3% | 1% | Cc1nc(N2CCN(S(=O)(=O)c3ccc(F)cc3)CC2)c2c(C)c(C)sc2n1 | 2
-7% | 3.3% | -11% | CC(=O)Nc1nnc(Cc2c[nH]c3ccccc23)s1 | -1
2% | 1.6% | 1% | COc1ccc2cc(CO)c(Cl)nc2c1 | 3
5% | 0.7% | 0% | COc1ccc(NC(=O)C(CC(=O)O)C(C)c2ccccc2)cc1 (stereo unspecified) | 5
8% | 2.2% | 1% | O=C(Nn1c(C2CCCCC2)nc2ccccc2c1=O)c1cc(Cl)ccc1[N+](=O)[O-] | 7
-3% | -1.2% | 3%&0% | CCOc1ccccc1NC(=O)Cn1c(=O)oc2ccccc21 | -10
3% | -0.4% | -18% | Cc1cc(C(=O)N/N=C/c2cc(N=Nc3ccccc3)ccc2O)n[nH]1 | -10
u | u | x | O=C1CCn2c1c(O)c1ccccc1c2=O | x
-7% | 0.0% | x | O=C1CC(c2ccccc2)Oc2ccc(Cl)cc21 (stereo unspecified) | x
3% | -2.8% | x | Cc1nc(SCC(=O)NC2CCS(=O)(=O)C2)c(C#N)c(C)c1C (stereo unspecified) | x
0% | -0.8% | -49% | O=[N+]([O-])c1ccccc1/C=N\N1CCN(c2ccccc2)CC1 | -21
-13% | 0.2% | -21% | C=CCn1c(C)cc(C2=NNC(=NCc3ccccc3)SC2)c1C | -13
22% | 1.9% | 7% | Fc1ccccc1NC(=S)NCc1ccc(Cl)cc1 | x
0% | 0.5% | -8% | C/C=C/c1ccc(OCCCNCC(C)O)c(OC)c1 (stereo unspecified) | 2
1% | 0.3% | 6% | COc1ccc(C(O)P(=O)(OCCC(C)C)c2ccc(N(C)C)cc2)cc1 (stereo unspecified) | x
-11% | 0.8% | -44% | CN(C)C(CNC(=O)c1ccc(C2SCCS2)cc1)c1ccccc1 (stereo unspecified) | x
10% | -0.4% | 2% | COc1ccc(S(=O)(=O)Nc2ccc(S(=O)(=O)Nc3nc(C)cc(C)n3)cc2)cc1OC | 3
19% | 0.0% | -6% | O=C(CSc1nc2c(c(=O)n1-c1ccc(Br)cc1)SCC2)NCc1ccco1 | 11
-4% | 3.1% | -14% | Cc1ccccc1Cn1nnc(C(=O)Nc2cccc(C)c2C)c1N | 3
43% | -1.8% | -13% | C=CCn1c(=S)[nH]c2sc3c(c2c1=O)CCCC3 | x
-21% | 0.1% | x | O=C(NNC(=O)c1ccc2ccccc2c1)c1cccc(Br)c1 | x
-13% | -3.3% | -27% | COc1cc2c(cc1OC)-c1cc(NC3CCCC3)nc(=O)n1CC2 | 6
12% | -3.8% | -16% | Cc1ccsc1C(=O)OCC(=O)NCc1ccco1 | 5
0% | 2.9% | -1% | CC(=O)NCC(=O)N(Cc1ccco1)C1(C(=O)NC2CCCCC2)CCCCC1 | 4
8% | -2.6% | 2% | Cc1nc(-c2cccnc2)sc1C(=O)N/N=C/c1ccccc1Cl | 2
-3% | 0.3% | -2% | COCc1n[nH]c(=S)n1-c1cccc2ccccc12 | 4
-23% | -4.5% | -33% | COCc1cc(C)nc(SCC(=O)Nc2ccc3c(c2)OCO3)c1C#N | -6
18% | 7.0% | -4% | COc1ccc(NC(=O)CC2SC(N)=NC2=O)c([N+](=O)[O-])c1 (stereo unspecified) | 6
29% | 0.4% | x | CCCC[C@@H]1CNCCN1CCc1cccc(F)c1 | x
-8% | 0.1% | 0% | CCCCC(=O)Nc1nnc(C)s1 | 0
7% | -0.6% | -2% | COc1ccc(CCNS(=O)(=O)c2cn(C)c(=O)n(C)c2=O)cc1OC | -4
9% | -1.8% | -4% | CCC(C(=O)Nc1ccc(OC)c(Cl)c1)c1ccccc1 (stereo unspecified) | 2
-6% | -3.3% | x | COc1ccc(OCCC(=O)OCC(=O)NCc2ccccc2OC)cc1 | x
17% | 1.1% | 0% | Cc1nn2c(-c3ccccn3)ccnc2c1Cl | -2
5% | -2.6% | x | CC(NC(=O)COC(=O)C1(C)CC1(Cl)Cl)c1ccccc1 (stereo unspecified) | x
-6% | u | -12% | Cc1ccccc1Nc1nc(-c2sc(NC(=O)c3ccco3)nc2C)cs1 | -7
-9% | -2.5% | 15% | C/C=C(\C)C(=O)N1CC2(CC(c3cccc(NC(=O)COc4ccc(Cl)cc4)c3)=NO2)C[C@@H]1C(N)=O (stereo partly specified) | 2
u | u | u | CC(=O)c1ccc(NC(=O)COC(=O)c2c3c(nc4ccccc24)/C(=C\c2cccs2)CCC3)cc1 | 1
5% | -0.2% | -6% | Cc1ccc(C(=O)O/N=C\c2ccc(N3CCCCC3)c([N+](=O)[O-])c2)cc1 | 11
12% | -0.1% | -1% | O=C(COC(=O)CCCNC(=O)c1ccc(Cl)cc1)Nc1cc(Cl)ccc1Cl | 3
5% | -0.8% | -6% | COc1ccc(CCNS(=O)(=O)c2cc3c(cc2C)NC(=O)CO3)cc1OC | x
7% | 3.7% | -62% | Cc1ccc(/C=N/NC(=O)c2cccs2)s1 | 0
-13% | 5.2% | 1% | CCOC(=O)c1sc2nc(CSCC(=O)OCc3ccc(C(=O)OC)o3)[nH]c(=O)c2c1C | -26
u | u | -44% | O=C(/C=C\Nc1cccc(F)c1)c1cccs1 | -7
-13% | -5.4% | 10% | O=C(CNc1cccc(S(=O)(=O)N2CCCCC2)c1)Nc1ccccc1F | x
1% | 3.2% | -3% | CN(C1CCCCC1)S(=O)(=O)c1ccc(NC(=O)C2CCCCC2C(=O)O)cc1 (stereo unspecified) | 2
3% | -0.7% | x | CN(C)C(CNC(=O)CCNC(=O)c1ccccc1Cl)c1ccco1 (stereo unspecified) | x
-11% | -1.5% | 1% | O=C(CCCNC(=O)c1ccc(Cl)cc1)NCc1ccc(F)cc1 | x
-8% | 0.1% | -9% | Cc1cc(NC(=O)Cn2nc(C(F)(F)F)c3c2CCC3)no1 | -1
u | -7.5% | -2% | COc1ccccc1NC(=O)c1sc(NC(=O)c2ccco2)c(C#N)c1C | 1
-5% | 0.3% | 10% | CCS(=O)(=O)c1nc(S(=O)(=O)c2ccc(C)cc2)c(N2CCOCC2)s1 | x
u | u | x | COc1cc(/C=C/C(=O)OCC(=O)N(C)Cc2ccccc2)ccc1O | x
-5% | -0.6% | 21% | C=CCc1cccc(/C=N/NC(=O)c2ccccc2Br)c1O | 0
-5% | 2.3% | -37% | O=C(N/N=C/c1ccc(O)cc1)c1csc2ccccc12 | -12
14% | -1.8% | x | Brc1ccccc1-c1nc2c3ccccc3ncn2n1 | x
-14% | 3.3% | u | CCOC(=O)c1cnc(-n2nc(C)cc2C)nc1NC1CCCCC1 | -20
-19% | -1.5% | x | O=C(NNC(=O)C1CCC1)c1ccccc1F | x
-10% | 1.8% | 4% | C=CCNC(=O)Cc1c(OC)ccc2cc(Br)ccc12 | -6

(further entries)
Rango dissoc inh | Rango-impB inh | miR-21 FLuc | SMILES | GLA inh pH 4.5
-1% | -5.6% | -1%&-12% | CC(C)CC(=O)Nc1nnc(S(=O)(=O)N2CCc3ccccc32)s1 | x
u | u | 2% | COc1ccccc1C1C2=C(CC(C)(C)CC2=O)N(CC(=O)O)C2=C1C(=O)CC(C)(C)C2 | x
-8% | 0.3% | x | N#CC1(NC(=O)CSc2nnc3n2CCCCC3)CCCCC1 | x
0% | -2.1% | 12% | O=C(COc1cccc2ccccc12)Nc1ccc(Cl)cc1C(=O)O | x
-1% | -0.4% | -10% | CN1C(C(=O)NCC2CC2)CC2Cn3c(nc4cc5ccccc5cc43)C21 (stereo unspecified) | 12
-11% | -1.1% | 10% | O=C(CC(c1ccccc1)c1cc(Cl)ccc1O)N1CCCC1 (stereo unspecified) | 0
16% | -1.1% | x | CCN(C(=O)COC(=O)/C=C/c1ccc(OC)c(OC)c1)c1c(N)n(Cc2ccccc2)c(=O)[nH]c1=O | x
-12% | 0.3% | -13% | COc1ccccc1CN1CC(C(=O)N(C)Cc2[nH]c3ccccc3c2C)CCC1=O (stereo unspecified) | x
3% | -1.7% | -19% | CC1CCN(CC(=O)N2CCc3ccccc32)CC1 | x
2% | -3.1% | -5% | CCC(OC(=O)c1cccs1)C(=O)NC1CCCCC1 (stereo unspecified) | -11
-21% | -4.5% | -3% | CN1C(=O)CC(N2CCN(c3ncccn3)CC2)C1=O (stereo unspecified) | -4
1% | 0.2% | 1% | COc1cc(OC)cc(-c2nc(N)n[nH]2)c1 | -3
-1% | -4.3% | -32% | N#CCOc1ccccc1/C=C/c1nc2ccccc2c(=O)[nH]1 | x
21% | -1.5% | -39% | COc1ccccc1-c1ccc(Nc2cccc(C(C)=O)c2)nn1 | -12
-11% | -6.7% | -4% | Cc1onc(-c2ccccc2Cl)c1C(=O)Nc1ccc(-n2nncc2-c2ccco2)cc1 | -4
-2% | -1.0% | -44% | CC(=O)c1ccc(OCc2ncc(C(F)(F)F)cc2Cl)cc1 | -4
0% | 1.2% | -11% | Cc1ccc(Cc2ccc(C(=O)NNC(N)=S)o2)cc1 | 2
-9% | -3.3% | 0% | NS(=O)(=O)c1ccc(NC(=S)NCc2ccco2)cc1 | -2
-5% | -1.7% | -6% | COc1ccc(NC(=S)N2CCCC2)cc1OC | 2
-13% | u | 2% | COc1ccc(C(=O)N/C(=C/c2ccco2)C(=O)NCc2ccco2)cc1 | x

Individual results from the list.
In Rango dissoc inh, O=C(COc1cccc2ccccc12)Nc1ccc(Cl)cc1C(=O)O has 0%
In Rango dissoc inh, Cc1onc(-c2ccccc2Cl)c1C(=O)Nc1ccc(-n2nncc2-c2ccco2)cc1 has -11%
In Rango-impB inh, CC(=O)c1ccc(OCc2ncc(C(F)(F)F)cc2Cl)cc1 has -1.0%
In GLA inh pH 4.5, NS(=O)(=O)c1ccc(NC(=S)NCc2ccco2)cc1 has -2
In GLA inh pH 4.5, COc1ccc(NC(=S)N2CCCC2)cc1OC has 2

(next part)
Rango dissoc inh | Rango-impB inh | miR-21 FLuc | SMILES | GLA inh pH 4.5
10% | -1.8% | -1% | COc1ccc(C(=O)N/C(=C\c2cn(C)c3ccccc23)C(=O)NCCCn2ccnc2)cc1 | x
-2% | 3.9% | x | CC(=O)c1ccc(NC(=O)CSc2nc(=O)n(CCN3CCOCC3)c3c2CCC3)cc1 | x
9% | 4.7% | -7% | NS(=O)(=O)c1ccc(NC(=S)N2CCN(c3ccccc3)CC2)cc1 | 1
-6% | -2.7% | -2% | Cn1cc(SCC(=O)Nc2nc3ccccc3s2)c2ccccc21 | 0
4% | -0.7% | -53% | O=C(CSc1nnc2ccccn12)c1ccc2c(c1)OCCO2 | 5
5% | -1.1% | -24% | Cc1ccc(C2=CSC3=NNC4(CCCCC4)NN23)cc1 | -2
4% | 1.5% | 1% | CC(C)C(NS(=O)(=O)c1cccc2nsnc12)C(=O)N1CCn2c1nc1ccccc12 (stereo unspecified) | -4
1% | 5.7% | -16% | Cc1ccc(NC(=O)N2CCC(c3nc4c(nnn4Cc4cccc(Cl)c4)c(=O)[nH]3)CC2)cc1 | -9
22% | 2.5% | -13% | O=C(Oc1ccc(NC(=O)c2cc3c(cc2Br)OCO3)cc1)c1ccccc1 | -2
-11% | -3.5% | 1% | O=C(CC1Sc2ccccc2NC1=O)NNC(=O)Nc1ccc(Cl)cc1 (stereo unspecified) | 3
-11% | 1.4% | x | O=C(COC(=O)c1cccc(O)c1)c1ccccc1 | x
-7% | u | 0% | COC(=O)CC1=C(C(=O)OC)C(c2cccc(OCC(N)=O)c2)C(C#N)=C(N)O1 (stereo unspecified) | 8
-6% | -0.9% | x | O=C(NNC(=O)c1ccccc1O)c1cc2ccccc2o1 | x
3% | 2.2% | 5% | COC(C[C@@H]1O[C@@H]1C(=O)COCc1ccccc1)OC | 0

2 records picked at random from the list so far, as already listed:
Rango dissoc inh | Rango-impB inh | miR-21 FLuc | SMILES | GLA inh pH 4.5
22% | 2.5% | -13% | O=C(Oc1ccc(NC(=O)c2cc3c(cc2Br)OCO3)cc1)c1ccccc1 | -2
-2% | 3.9% | x | CC(=O)c1ccc(NC(=O)CSc2nc(=O)n(CCN3CCOCC3)c3c2CCC3)cc1 | x
